Sa ugtP lethal: growth inhibition of S. aureus ugtP deletion strain. S. aureus RN4220 ugtP deletion, OD600 growth, 16 h; some inactives read as strong as hits. growth inhibition, % (concentration not given with the values). 330,000 compounds, 0.54% hits. AID 1259309;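 active = z-score under -3 and OD600 up to 0.15 on both plates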;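 also: plate controls were untreated wells for no effect and antibiotic for full effect; wells of about 80 µL received 100 nL stock; the first replicate is given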
PrP 5UTR inh: suppresses PrP 5' UTR mRNA reporter expression; cell-based PrP 5' UTR mRNA reporter, plate reader; inhibition, % (test concentration not listed); 340,000 compounds, 0.35% hits; AID 488862;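 active = every replicate at 50% or more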;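 also: 0 = median of the neutral control wells; tested in H4 reporter cells; numbers are from one replicate; inactives centre near -14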
Mtb hypoxia rep: inhibitors of hypoxia-regulated fluorescent reporter in Mycobacterium tuberculosis | fluorescence inhibition, % (concentration not given with the values) | 300,000 compounds, 0.1% hits | M. tuberculosis hypoxia-regulated fluorescent reporter, fluorescence;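 active = 35 to 45% if threefold the growth effect, above 45% if 1.5-fold the growth effect; inactive = the rest, general growth blockers included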;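 also: wells of about 50 µL received 100 nL stock; 0% = vehicle wells and 100% = reference inhibitor wells; whole bacteria with a GFP reporter of the hypoxia response; strong numbers were not always called active; many hits fall short of the cut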
BJeLR lethal: BJeLR cell viability loss. BJeLR (HRASV12) viability, CellTiter-Glo ATP luminescence, 48 h; reference of the scale not given here. inhibition, % (no concentration beside the values). AID 1554. 300,000 compounds, 0.17% hits;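 active = replicate mean above 50%; inconclusive = above 50% but judged a plate artefact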;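 also: 50 nL library stock added to about 25 µL; numbers are from one replicate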
Autofluor counter: counter-screen for toxin protease inhibitors: compound fluorescence; compound autofluorescence counterscreen, microsphere flow cytometry; hits give high values; fluorescence intensity (concentration not given with the values); 360,000 compounds, 3.1% hits; AID 624483;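 active = at least 3 SD above the mean of all compounds, about 16000 in these data; inconclusive = too few beads counted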;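 also: 100 nL of 1 mM stock went into each well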
Sa RN4220 lethal: kills Staphylococcus aureus RN4220. S. aureus RN4220 growth, OD600, 16 h. inhibition, % (concentration not given with the values). 330,000 compounds, 0.33% hits. AID 1259311;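 active = z-score of -3 or lower and OD600 up to 0.18 on both plates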;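 also: plate controls were untreated cells for no effect and reference antibiotic for full effect; stock transfer was 100 nL into about 80 µL; one replicate is shown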
Mtb hypoxia rep growth: also measured in Mtb hypoxia rep; calls as there; growth inhibition, %; measured here: M. tuberculosis growth (absorbance);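 0% = vehicle and 100% = reference antibiotic; read after six days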
* = called active by the depositor; ? = inconclusive; nt = not tested or not shown. This is a random part of the collection. About 4% of those tested had a hit in this group.

Sequence of screens – Sa ugtP lethal	PrP 5UTR inh	Mtb hypoxia rep	Mtb hypoxia rep growth	BJeLR lethal	Autofluor counter	Sa RN4220 lethal
1	COc1ccccc1CC(=O)NC1CCN(Cc2ccccc2)CC1
    -5	-4	-5	-1	-1	3743	-1.9
2	O=C(COC(=O)c1ccccn1)Nc1ccccc1Cl
    12	-13	nt	nt	-2	2360	2.6
3	CCC(C)Sc1nc2c(cnn2-c2ccccc2)c(=O)[nH]1 (stereo unspecified)
    10	-24	5	5	-7	5794	2.1
4	Cc1cc2cc(C(c3nnnn3C(C)(C)C)N(Cc3ccco3)CC3CCCO3)c(=O)[nH]c2cc1C (stereo unspecified)
    -2	-34	14	5	-3	9489	1.4
5	CSc1cccc(NC(=O)C2CCN(S(=O)(=O)c3ccc4c(c3)NC(=O)CO4)CC2)c1
    3	-11	3	7	5	4997	0.5
6	Cc1sc2ncn(CC(=O)NCCCC(=O)N3CCN(c4ccccc4)CC3)c(=O)c2c1C
    -4	3	1	4	6	8616	1.5
7	CCCC(=O)Nc1ccccc1-c1nnc(SCC)[nH]c1=O
    1	-22	4	2	4	3520	5.1
8	CC(=O)SC1CC(=O)C=C2CCC3C4CCC(=O)OC4(C)CCC3C21C (stereo unspecified)
    6	-31	11	7	nt	3794	7.1
9	COc1cc(OC)c(C(=O)O/N=C(\N)c2ccccn2)cc1OC
    4	-1	10	-1	-4	3744	-1.4
10	Cc1ccc(Sc2cnccc2C#N)cc1
    -10	-4	1	-2	-1	3737	-0.3
11	CCC(CO)NCc1cc(OC)c(OCC(=O)NCCc2ccccc2)cc1Br (stereo unspecified)
    -1	-29	7	-4	-5	2038	2.9
12	CC/C(=N/Nc1ccccc1C)c1cnnc(SC)n1
    nt	-16	nt	nt	-2	10630	nt
13	C=C1C(C(=O)Nc2ccc(OC)cc2)C1C(=O)Nc1ccc(OC)cc1 (stereo unspecified)
    9	-21	22	3	1	5075	0.9
14	CC(C)(CO)NCC(O)Cn1cc(C=O)c2ccccc21 (stereo unspecified)
    9	-31	5	-2	18	3162	5.0
15	FC(F)(F)C1=NC(C(F)(F)F)=NP(N2CCOCC2)(N2CCOCC2)=N1
    0	-8	9	8	3	10197	2.1
16	CCCC[C@@H]1CNC(=S)N1CCC12CC3CC(CC(C3)C1)C2
    2	-21	6	2	0	3502	-13
17	Cc1ccc(S(N)(=O)=O)cc1NC(=O)C(c1ccccc1)c1ccccc1
    2	-11	-7	-6	-11	3847	0.7
18	CC(C)=CC(=O)Nc1nnc(C)s1
    3	-40	7	9	-6	2887	1.7
19	COc1cc(C(=O)N[C@H](C(=O)NC2CCCc3ccccc32)C(C)C)cc(OC)c1OC (stereo partly specified)
    -5	-27	-6	2	nt	6098	-1.7
20	Cc1cc(=O)n2c(ccc3ccccc32)c1C#N
    11	-13	7	4	-17	2948	5.5
21	Cc1ccc(S(=O)(=O)N(C)C)cc1NC(=O)c1sccc1Cl
    5	-6	1	-1	2	5220	4.5
22	CCOC(=O)N1CCN(C(=O)Nc2ccc(NC(=O)N3CCN(C(=O)OCC)CC3)cc2)CC1
    2	-10	0	4	11	4181	2.8
23	Cc1ccc(C(O)P(=O)(OCc2ccccc2)c2ccc(N(C)C)cc2)cc1 (stereo unspecified)
    3	-7	-6	-2	10	3442	1.2
24	CN(CC(=O)Nc1cccc(F)c1)C(=O)C1(c2ccccc2)CC1
    -4	-22	-5	8	nt	4158	-0.9
25	COc1cccc(NC(=O)CSc2nnc(-c3ccco3)c(-c3ccco3)n2)c1
    1	-14	11	3	3	4702	-1.0
26	COc1ccccc1CNC(=O)CN1C(=O)C(C)N(c2ccc(C)cc2)C1=O (stereo unspecified)
    8	-5	5	-1	5	3354	3.6
27	CC(NC(=O)CN(c1ccc(Cl)cc1)S(C)(=O)=O)c1ccccc1 (stereo unspecified)
    10	-13	12	8	8	3657	-0.6
28	O=C(Cc1cccc2ccccc12)NN=C1CCCc2ccccc21
    -5	nt	8	11	nt	nt	-0.2
29	O=C(NCCCN1CCCC1=O)c1ccc2c(c1)NC(=O)c1ccccc1S2
    7	5	nt	nt	-1	5324	6.7
30	CCn1c(C)cc(/C=C2/NC(=O)N(CC(=O)Nc3cccc(C)c3)C2=O)c1C
    -14	-24	0	6	0	10929	5.0
31	COC(C)(C)[C@]12CC(O)(c3ccccc3)ON1[C@H]1CCCCC1N2O (stereo partly specified)
    nt	-17	nt	nt	-8	2797	nt
32	Cc1c(C(=O)OCC(=O)NCCN2C(=O)CSC2=O)oc2c1ccc1ccccc12
    -4	-10	-4	3	1	2097	3.8
33	COc1ccc(C2=NS(=O)(=O)N(C)C(C(=O)N3CCC4(CC3)OCCO4)=C2)cc1OC
    1	-10	-5	-2	-2	5145	6.3
34	O=C(O)C12C3CCCC1C32c1ccccc1 (stereo unspecified)
    3	-14	3	9	0	9431	4.8
35	COc1ccc(C2CC(=O)C=C(c3ccc(-c4ccccc4)cc3)C2)cc1OC (stereo unspecified)
    3	nt	2	0	nt	nt	4.1
36	COCCNC(=O)C1CCCN(c2ncccn2)C1 (stereo unspecified)
    5	-12	3	-8	14	21959*	1.7
37	CCCCCNC(=O)C(C)NS(=O)(=O)c1ccc(OC)cc1 (stereo unspecified)
    -7	-78	nt	nt	-1	4199	-2.4
38	COc1ccc(OC(=O)c2cccnc2)cc1
    4	2	nt	nt	0	6290	2.7
39	COc1ccc(NC(=O)C(NC(C)=O)C(=O)NCc2ccccc2)cc1 (stereo unspecified)
    1	-23	nt	nt	3	2415	-0.5
40	O=C(CON=Cc1ccccc1Cl)N1CCCc2ccccc21
    5	nt	7	4	nt	nt	8.0
41	CC(=NNC1=NCCN1)c1ccc(N)c([N+](=O)[O-])c1
    -4	nt	1	2	nt	nt	-1.5
42	COc1ccc(C=CC(=O)C=CC=Cc2ccccc2)cc1
    60	3	-1	4	nt	2972	5.8
43	Cc1ccc(NC(=S)Nc2ncccc2C)c(C)c1
    2	-128	13	16	5	6622	3.0
44	OC[C@@H](O)[C@@H](O)[C@H](O)[C@@H](O)CO
    -4	0	nt	nt	-2	5489	7.6
45	O=C(COc1ccc(Cl)c(Cl)c1)NN1C(=O)C2C(C1=O)C1C=CC2C12CC2 (stereo unspecified)
    0	-20	13	0	8	2494	19
46	CCCC1c2ccsc2CCN1C(=S)NC (stereo unspecified)
    2	-16	13	-5	4	4499	2.1
47	CC(C)c1ccc(S(=O)(=O)Nc2ccc(N3CCOCC3)cc2)cc1
    3	-8	4	4	-7	5595	3.4
48	CCOC(=O)c1cc(C#N)c(N2CCNCC2)nc1C(F)(F)F
    13	-8	20	9	-4	4038	1.6
49	COc1cccc(OCc2nn3c(=O)c(-c4ccccc4)nnc3s2)c1
    -5	-25	-1	-3	7	4003	4.8
50	Cc1ccc2c(CSc3nnc(C4CC4)n3N)cc(=O)oc2c1
    5	-14	3	5	-3	7635	2.4
51	CC(C)OCCCNC(=O)CN1CCN(Cc2ccc(Cl)cc2)C1=O
    19	-21	17	4	-11	3689	6.4
52	CC1CCN(C(=O)C2CCC(C)(C(=O)O)C2(C)C)CC1 (stereo unspecified)
    9	5	14	11	5	2428	2.4
53	Cc1sc2nc(C(C)C)nc(SCC(=O)NCc3ccco3)c2c1C
    19	-3	20	7	5	11123	7.1
54	CCOC(=O)N1CCN(C(=O)CN(c2ccc(Cl)c(C(F)(F)F)c2)S(C)(=O)=O)CC1
    6	-22	4	12	1	4008	0.7
55	Cc1cccn2c(=O)c(/C=C(\C#N)C(N)=O)c(N3CCCCCC3)nc12
    9	2	2	7	-5	3438	6.0
56	O=C(COc1ccccc1)NC(NC(=S)Nc1ccccc1O)C(Cl)(Cl)Cl (stereo unspecified)
    -7	0	12	4	4	8590	4.0
57	COc1ccc(C(=O)NNC(=O)c2cccc3ccccc23)cc1
    0	-38	13	6	nt	3053	5.7
58	O=C(Cn1nnc(-c2ccc(Cl)cc2)n1)NC1CC2CCC1C2 (stereo unspecified)
    -7	-7	nt	nt	8	4823	-2.4
59	CCOc1cc(N2CCOCC2)c(OCC)cc1NC(=O)CN1C(=O)NC(C)(c2ccc(OC)cc2)C1=O (stereo unspecified)
    1	0	-9	10	nt	3486	-2.5
60	O=C(Cn1cccc1C(=O)c1ccccc1)NCCc1ccc(Cl)cc1
    1	-28	2	8	4	6610	4.7

61) C=CCSc1ncc(C(=O)OCC)c(N)n1
62) C/C(=N\NC(=O)c1nnn(-c2nonc2N)c1C(C)C)c1cc(C)sc1C
63) O=C(COC(=O)COc1ccc(Br)cc1)NCc1ccccc1
64) CC(OC(=O)CSc1ccccc1)C(=O)NC1CCCCC1C (stereo unspecified)
65) CC(C)C(=O)NCc1cc(-c2ccccc2)no1
66) Cc1ccccc1-n1c(O)c(/C=C/C=Nc2ccccc2)c(=O)[nH]c1=O

Compound,61,62,63,64,65,66
Sa ugtP lethal,-5,nt,2,3,-18,nt
PrP 5UTR inh,-20,-14,-13,-16,-6,-10
Mtb hypoxia rep,10,nt,-6,10,-1,nt
Mtb hypoxia rep growth,6,nt,3,9,22,nt
BJeLR lethal,1,-8,nt,nt,-13,-3
Autofluor counter,?,5512,3678,4823,3735,2912
Sa RN4220 lethal,12,nt,8.8,2.7,-0.2,nt

67) NS(=O)(=O)c1cccc(NC(=O)c2cccc(S(=O)(=O)N3CCCCCC3)c2)c1
68) COc1cc(C=O)ccc1OCCOCCOc1cc(C)ccc1Cl
69) Cc1cc2c(cc1S(=O)(=O)NCc1ccc(N(C)C)cc1)OCC(=O)N2
70) COc1ccc(C2N=C(c3ccccc3)C(C)(C)N2O)cc1 (stereo unspecified)
71) O=C(O)c1cc(-c2ccc(Cl)cc2)n(-c2cccc(Cl)c2)n1
72) O=c1[nH]c(=S)n(-c2ccc(F)cc2)c(O)c1/C=N/N1CCOCC1
73) O=[N+]([O-])c1ccc2c(c1)c(-c1ccccc1)nc1nncn12
74) O=C(Nn1cnnc1)c1ccc(Cl)cc1[N+](=O)[O-]
75) O=S(=O)(c1ccccc1)N(CC1CO1)c1cc(Cl)ccc1Cl (stereo unspecified)

Compound,67,68,69,70,71,72,73,74,75
Sa ugtP lethal,10,2,-4,-3,0,6,4,8,-1
PrP 5UTR inh,-9,-21,-23,-26,-14,-23,-4,-28,-8
Mtb hypoxia rep,8,nt,9,-3,6,3,8,-7,10
Mtb hypoxia rep growth,13,nt,10,-2,1,7,5,0,6
BJeLR lethal,nt,1,-1,-10,3,4,-11,-4,2
Autofluor counter,3794,2710,6500,5164,3338,nt,5274,3408,5691
Sa RN4220 lethal,3.2,3.3,-11,0.0,4.1,2.9,2.1,4.8,3.0

Single records, from the list above. Screens in order: Sa ugtP lethal	PrP 5UTR inh	Mtb hypoxia rep	Mtb hypoxia rep growth	BJeLR lethal	Autofluor counter	Sa RN4220 lethal
Cc1cc2c(cc1S(=O)(=O)NCc1ccc(N(C)C)cc1)OCC(=O)N2 is listed as -4	-23	9	10	-1	6500	-11
O=S(=O)(c1ccccc1)N(CC1CO1)c1cc(Cl)ccc1Cl (stereo unspecified) is listed as -1	-8	10	6	2	5691	3.0
O=C(O)c1cc(-c2ccc(Cl)cc2)n(-c2cccc(Cl)c2)n1 is listed as 0	-14	6	1	3	3338	4.1
COc1ccc(C2N=C(c3ccccc3)C(C)(C)N2O)cc1 (stereo unspecified) is listed as -3	-26	-3	-2	-10	5164	0.0
O=C(Nn1cnnc1)c1ccc(Cl)cc1[N+](=O)[O-] is listed as 8	-28	-7	0	-4	3408	4.8

Gathered by group, the entries above containing bromine (two)
11) CCC(CO)NCc1cc(OC)c(OCC(=O)NCCc2ccccc2)cc1Br (stereo unspecified)
63) O=C(COC(=O)COc1ccc(Br)cc1)NCc1ccccc1

Compound,11,63
Sa ugtP lethal,-1,2
PrP 5UTR inh,-29,-13
Mtb hypoxia rep,7,-6
Mtb hypoxia rep growth,-4,3
BJeLR lethal,-5,nt
Autofluor counter,2038,3678
Sa RN4220 lethal,2.9,8.8

Source: PubChem (several laboratories)
